High-throughput results as filed in PubChem.
PMP22 txn: modulates PMP22 transcription in S16 Schwann cells. S16 Pmp22-F2sN Schwann cells (luciferase reporters placed in the Pmp22 gene), FLuc/NLuc coincidence luminescence, 24 h. Potency, µM (titrated, usually from 57.5 µM), for the others: at the top dose activity change, negative = inhibition, most hits filed as inhibitors. 2% of 43,000 active; active = clear falling dose curves in both reporters; inconclusive = both reporters move, but less clearly or upward; inactive = either reporter flat; the % is the NLuc reporter signal; note: % is set by controls: 0 for no effect and ±100 for the full control effect; some results filed as inactive show a strong effect at the top dose
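S16 Schwann cells carrying FLuc/NLuc coincidence reporter in the Pmp22 3' UTR treated with compound 24 h at 37C; FLuc then NLuc luminescence read sequentially by dual-luciferase reagents.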
HTT prom inh: inhibits huntingtin promoter activity. HEK293 HTT promoter firefly luciferase reporter (activity 0% = vehicle and -100% = no light), 24 h. Potency, µM (doses to about 57.5 µM), without a hit: at the top dose activity change, negative = inhibition, most hits filed as inhibitors. 0.93% of 48,000 active; active = well fitted inhibition curve with a large enough effect; inconclusive = small, poorly fitted or top-dose-only effect; inactive = no such curve, though single readings can be large or run the other way; note: nearly all actives have a fitted effect of over 50% in size
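HEK293 cells carrying firefly luciferase reporters were seeded at 2,500 per well in Opti-MEM and cultured for 24 h. They were then treated with compounds at up to 57.5 uM final for 24 h at 37 degrees C before Dual-Glo luminescence readout.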
* marks the source's active call; other numbers are inactive results; ? = inconclusive; . = no result given; [ ] = remark or other dose. Potency is the fitted concentration of half-maximal effect. Hits appear at their usual frequency (roughly 2.7% active in at least one column).

item	Compound	PMP22 txn	HTT prom inh
1	Cc1ccc(Cn2ccn(Cc3ccccc3C)c(=O)c2=O)cc1	-19%	-26%
2	Cc1ccc(NC(=O)C2CCCN2S(=O)(=O)c2cccc3cccnc23)cc1C (stereo unspecified)	10%	?
3	COc1ccc(C2c3c(n(C)c4ccccc34)C(=O)N2CC(=O)Nc2ccc(F)cc2)cc1 (stereo unspecified)	-10%	-21%
4	Cc1ccc(-c2noc(-c3ccccc3NC(=O)C3CC(=O)N(c4cccc(C)c4)C3)n2)cc1 (stereo unspecified)	-8%	22%
5	COc1ccc(CNC(=O)CN(C)S(=O)(=O)c2ccc3c(c2)c(=O)n(C)c(=O)n3C)cc1	-50%	-4%
6	CCOc1ccc(NC(=O)CSc2oc(-c3cccs3)nc2S(=O)(=O)c2ccc(C)cc2)cc1	?	-6%
7	Cc1ccc2oc(=O)c3cc(C(=O)NCCc4ccc(Cl)cc4)sc3c2c1	-6%	-8%
8	COc1ccc(C(CNC(=O)c2oc3ccc(Cl)cc3c2C)N2CCCCC2)cc1 (stereo unspecified)	?	-11%
9	CCn1c2ccccc2c2nnc(SCC(=O)Nc3ccccc3OC)nc21	-12%	-10%
10	O=C(O)CCCNc1cc(N2CCN(C3CCCCC3)CC2)c2noc3c2c1C(=O)c1ccccc1-3	?	?
11	COc1ccc2c(c1)-c1nc(NC(=O)c3cccc(Br)c3)sc1CC2	?	-19%
12	CCCC(O)c1nc2ccccc2n1CCCCOc1ccc(OC)cc1 (stereo unspecified)	?	-36%
13	COc1cccc(Cn2c(CNC(=O)Cc3cccc(C)c3)nc3cccnc32)c1	-4%	-2%
14	COc1ccc(NC(=O)C(C(C)C)N2Cc3ccccc3C2=O)cc1 (stereo unspecified)	-17%	?
15	CCN(CC)S(=O)(=O)c1cc(-c2ccc(=O)n(C(C)C(=O)Nc3cccc(C#N)c3)n2)ccc1C (stereo unspecified)	?	?
16	O=C(CSc1cn(CC(=O)N2CCCC2)c2ccccc12)Nc1ccccc1C(F)(F)F	-3%	-18%
17	COc1cc(C2c3c(oc4ccccc4c3=O)C(=O)N2Cc2ccccc2Cl)ccc1O (stereo unspecified)	11µM*	-1%
18	CCCCN(CCCC)S(=O)(=O)c1ccc2oc(C(=O)NCc3ccccc3)c(C)c2c1	?	?
19	COc1cccc(N2CCN(C(=O)C3CCN(S(=O)(=O)c4ccc5c(c4)oc(=O)n5C)CC3)CC2)c1	-21%	-25%
20	C=CCCCCCCCCC(=O)O	.	10%
21	O=C(Cn1nc(C(F)(F)F)c2c1CCCC2)Nc1ccc(Br)cc1	?	?
22	CC(Oc1ccccc1)C(=O)Nc1ccc(OCc2cc(=O)n3ccsc3n2)cc1 (stereo unspecified)	-14%	17%
23	O=C(CSc1nc2c([nH]c3ccccc32)c(=O)n1-c1ccc(Cl)cc1)N1CCOCC1	-16%	-11%
24	COc1cccc(N2CCN(C(=O)CCn3nc(C)c(S(=O)(=O)N4CCCC4)c3C)CC2)c1	-47%	-7%
25	COc1cc(NC(=O)C(Cc2ccccc2)NS(=O)(=O)c2cccs2)cc(OC)c1 (stereo unspecified)	-24%	-33%
26	COc1ccc(OCC(=O)Nc2ccc(-c3nc4cc(C)c(C)cc4o3)cc2)cc1	-3%	40%[activator]
27	COc1ccc(NC(=O)CSc2nc(-c3ccccc3)nc3c2Cc2c(CO)cnc(C)c2O3)cc1Cl	-16%	-13%
28	O=C(CCC(=O)N1Cc2ccccc2Oc2ncccc21)NCc1ccccc1Cl	-2%	-13%
29	COc1ccc(-n2nc(C)c3c(C(F)(F)F)cc(-c4cccnc4)nc32)cc1	-8%	-4%
30	O=c1c2[nH]c3ccccc3c2nc(SCc2cccc(F)c2)n1-c1ccccc1	?	-15%

The list continues:
item	Compound	PMP22 txn	HTT prom inh
31	CC(C)(C)C(=O)OCc1cc(=O)n2nc(C3CC3)sc2n1	-71%	5%
32	CCCc1noc(-c2ccc(N3CCCCC3)c([N+](=O)[O-])c2)n1	?	-5%
33	CCCCOc1ccc(C2=NC(c3cccs3)=Nc3ccc(OC)cc3N2)cc1	1%	?
34	Cc1ccc(Cn2cc(C(=O)c3ccc(C)cc3)c(=O)c3ccc(C)nc32)cc1	?	-10%
35	Cc1oc(-c2cccc(Cl)c2)nc1CSCC(=O)O	-25%	-29%
36	CCOc1ccc2c(c1)c(=O)c(C(=O)c1ccc(CC)cc1)cn2CC(=O)Nc1ccccc1C	?	-9%
37	CC1CCN(S(=O)(=O)c2ccc(C(=O)Nc3nc4ccc(F)cc4s3)cc2)CC1	?	-23%
38	COc1ccc(CCNC(=O)c2ccc3c(c2)ncn3-c2ccc(C)cc2C)cc1OC	?	-28%
39	CCOc1ccccc1N(CC)C(=O)Cn1ncc2c1-c1ccccc1OC2	-80%	-39%
40	CCC(C)NC(=O)CCc1c(C)nc2nc(-c3cc(OC)cc(OC)c3)nn2c1C (stereo unspecified)	19%	-9%
41	Cn1nc(-c2ccccc2)c(-c2ccccc2)c(C(=O)Nc2ccccc2C(N)=O)c1=O	39%	-18%
42	CC(C)N1CCc2nc(SCC(=O)Nc3cccc(F)c3)[nH]c(=O)c2C1	?	-2%
43	CCc1cccc(NC(=O)CCN2C(=O)c3ccccc3Sc3ncccc32)c1	-3%	-17%
44	COc1ccccc1N1CCN(C(=O)CSc2nc3ccccc3nc2Cc2ccc(C)cc2)CC1	-23%	0%
45	O=C(COc1ccccc1)Nc1cccc(-c2cn3cccnc3n2)c1	-10%	-1%
46	O=C(CSc1nccn1Cc1ccc(Cl)cc1)NCc1ccccc1	-1%	-15%
47	CCOc1cccc(CNC(=O)c2ccc(N3CCCC3)c(NC(=O)NCc3ccccc3)c2)c1	25%	?
48	CCn1ccc2cc(S(=O)(=O)N3CCC(C(=O)NCc4ccc(OC)cc4)CC3)ccc21	-2%	0%
49	CCOC(=O)c1c(C)[nH]c(C)c1S(=O)(=O)N1CCCC(C(=O)N2CCN(c3ccccc3)CC2)C1 (stereo unspecified)	-16%	-11%
50	CCc1cccc(NC(=O)Cn2c(=O)n(Cc3ccccc3)c(=O)c3c2c2cc(OC)ccc2n3C)c1	5%	-7%
51	COc1ccc(C(=O)NCC(c2cccnc2)N2CCc3ccccc3C2)cc1 (stereo unspecified)	?	?
52	Cc1cccc(Nc2nnc(-c3ccc(C)c(S(=O)(=O)N4CCN(C)CC4)c3)c3ccccc23)c1	?	-27%
53	COc1ccc(Cn2cc(C(=O)c3ccc(F)cc3)c(=O)c3cc4c(cc32)OCCO4)cc1	?	-30%
54	CCOC(=O)c1c(C)sc(-c2c(-c3ccc4c(c3)OCCO4)[nH]c3c2c(=O)n(C)c(=O)n3C)c1O	-26%	?
55	COc1ccc(NC(=O)c2cc(C3CC3)nc3c2c(C)nn3-c2ccc(C)cc2)cc1OC	2%	-14%
56	Cc1sccc1Br	.	4%
57	COc1ccc(CNC(=O)Cc2c(C(=O)O)c(C)cn2C)cc1	-1%	-10%
58	O=C(O)CCn1c(=O)c2cccn2c2cccnc21	-14%	-18%
59	COc1cc(OC)c(NC(=O)N2CCc3cc(S(=O)(=O)N4CCC(C)CC4)ccc32)cc1Cl	?	-15%
60	CCOc1ccc(-n2c(SCC(=O)NC3CCCCC3)nc3c([nH]c4ccccc43)c2=O)cc1	-4%	-9%

Continued, starting with the last six of the part before.
item	Compound	PMP22 txn	HTT prom inh
55	COc1ccc(NC(=O)c2cc(C3CC3)nc3c2c(C)nn3-c2ccc(C)cc2)cc1OC	2%	-14%
56	Cc1sccc1Br	.	4%
57	COc1ccc(CNC(=O)Cc2c(C(=O)O)c(C)cn2C)cc1	-1%	-10%
58	O=C(O)CCn1c(=O)c2cccn2c2cccnc21	-14%	-18%
59	COc1cc(OC)c(NC(=O)N2CCc3cc(S(=O)(=O)N4CCC(C)CC4)ccc32)cc1Cl	?	-15%
60	CCOc1ccc(-n2c(SCC(=O)NC3CCCCC3)nc3c([nH]c4ccccc43)c2=O)cc1	-4%	-9%
61	COc1ccc(C(=O)Nc2cc3cc(Cl)ccc3oc2=O)cc1OC	-18%	12%
62	CC(=O)c1ccc(NC(=O)CSc2nnc3ccc(-c4ccc(Cl)cc4)nn23)cc1	-22%	-8%
63	COc1ccc(N2CCN(C(=O)CS(=O)(=O)c3cccc4nsnc34)CC2)cc1	-7%	-30%
64	Cc1nc2sccn2c(=O)c1S(=O)(=O)Nc1ccc(N2CCN(S(C)(=O)=O)CC2)cc1	?	?
65	Cc1ccc(C(=O)Nc2ccc3oc(-c4cccnc4)nc3c2)c(Cl)c1	4%	-17%
66	COc1ccc(-n2c(SCC(=O)N3CCCc4ccccc43)nc3c([nH]c4ccccc43)c2=O)cc1	-2%	0%
67	Fc1ccc(C(Nc2ccc(Cl)c(C(F)(F)F)c2)c2nnc(-c3ccccc3)o2)cc1 (stereo unspecified)	?	-36%
68	Cc1ccc(CNC(=O)CN(c2cc(C)cc(C)c2)S(=O)(=O)c2c(C)[nH]c(=O)[nH]c2=O)cc1	-50%	-15%
69	Cc1ccc(S(=O)(=O)CC(=O)Nc2sc3c(c2C(N)=O)CCCC3)cc1	-42%	?
70	COCCn1c(SCC(=O)c2c[nH]c3ccccc23)nc2cc(C(=O)NCC(C)C)ccc2c1=O	-9%	-25%
71	CCCNC(=O)C(=O)NCC(c1ccc2c(c1)OCO2)N1CCOCC1 (stereo unspecified)	-1%	-25%
72	CC1=C(C(=O)Nc2ccc(C)cc2C)C(c2ccccc2)n2nc(SCC(=O)c3ccc(C)cc3)nc2N1 (stereo unspecified)	-22%	-2%
73	Cc1ccc(F)cc1NC(=O)Cn1c(C)cc(C)c(C#N)c1=O	-10%	3%
74	Cc1nn2c(=O)cc(COC(=O)C(c3ccccc3)c3ccccc3)nc2s1	21%	?
75	O=C(NCc1ccc2c(c1)CCN2C(=O)c1ccccc1)Nc1cc(F)ccc1F	?	?
76	CCOC(=O)c1c(C)[nH]c(C)c1S(=O)(=O)NCC(=O)NCc1ccccc1Cl	49%	-9%
77	O=C(c1cnc2cc(-c3ccccc3)nn2c1)c1cc([N+](=O)[O-])ccc1O	?	-12%
78	Fc1ccc(CNc2nc(-c3ccccc3)cc(C(F)(F)F)n2)cc1	?	-23%
79	Cc1ccc(C(C)C)c(OCC(=O)Nc2ccc(-c3nc4ncccc4o3)cc2C)c1	-3%	-12%
80	Cc1ccc(NC(=O)C2CCN(S(=O)(=O)c3c(C)noc3C)CC2)cc1C	-2%	-14%
81	CC(C)n1c(=N)c(C(=O)NC2CCCCC2)cc2c(=O)n3ccccc3nc21	2%	-13%
82	O=C(Cn1ncc2c3ccccc3n(Cc3ccccc3F)c2c1=O)NCc1ccccc1Cl	?	-11%
83	COc1cccc(-n2c(=O)c3cc(OC)c(OC)cc3n(CC(=O)Nc3ccccc3)c2=O)c1	9%	-16%
84	O=C(c1ccccc1F)N1c2ncnn2C2(CCCCC2)[C@@H]2CCCC[C@@H]21	8%	19%
85	Cc1ccccc1Cn1nnc2c(=O)[nH]c(C3CCN(C(=O)c4ccc(F)cc4)CC3)nc21	10µM*	?
86	OCC(O)C(O)C(O)CO (stereo unspecified)	.	-8%
87	O=C(CCSCc1ccccc1Cl)NCc1ccc(F)cc1Cl	-14%	-15%
88	Cc1ccc(-n2ncc3c(N4CCCCCC4)ncnc32)cc1Cl	-1%	0.35µM*
89	OCCCNc1cc(-c2ccnc(Nc3cccc(Cl)c3)n2)ccn1	.	?
90	Cc1ccc(C2=NC(c3ccccc3)=Nc3ccc(Cl)cc3N2)cc1	0%	34%[activator]

Next section:
item	Compound	PMP22 txn	HTT prom inh
91	Cc1ccc(CNC(=O)c2ccc3nc(N4CCCCC4)sc3c2)cc1	-7%	?
92	Cc1ccc2c(=O)c(C(=O)c3ccc(Cl)cc3)cn(CC(=O)Nc3ccc4c(c3)OCCO4)c2n1	-14%	-19%
93	O=C(Cn1cc(SCc2ccc(F)cc2)c2ccccc21)N1CCCC1	-7%	16%
94	COc1cc(-c2nnn(CC(=O)Nc3ccc(OC(F)(F)F)cc3)n2)cc(OC)c1OC	1%	-12%
95	Cc1ccc(NC(=O)C(=O)NCC(c2cccnc2)N2CCN(C)CC2)cc1 (stereo unspecified)	-6%	0%
96	CCSc1nn(CC(=O)Nc2cccc(Cl)c2)c(N)c1S(=O)(=O)c1ccc(OC)cc1	?	?
97	CCOC(=O)c1ccc(NC(=O)c2csc3c2CCCCC3)cc1	-17%	-10%
98	COc1cccc(C2=CC(c3ccccc3F)n3c(nc4ccccc43)N2)c1 (stereo unspecified)	?	25%
99	CCOc1ccc(CCNC(=O)NCc2noc3ccc(C)cc23)cc1	58%	-18%
100	CCC(=O)N1c2ccccc2CC1C(=O)NCCc1ccc(SC)cc1 (stereo unspecified)	18%	-3%
101	COc1ccccc1NC(=O)CSc1oc(-c2ccccc2)nc1S(=O)(=O)c1ccccc1	5%	?
